MARV entry inh: inhibitors of Marburg virus binding or cell entry. Marburg virus pseudotyped entry inhibition, cell reporter; control for the full effect not named in the record; about a third of the inactives were read at about 46 µM. Potency, µM (series often up to 37.8 µM), without a hit: at the top dose activity change, negative = inhibition, actives largely listed as inhibitors. actives 1.8% (n = 300,000). AID 540276; active = well fitted inhibition curve with a large enough effect; inconclusive = small, poorly fitted or top-dose-only effect, or effect the other way; inactive = flat fitted curve, though single readings scatter; tested in HEK293 cells; about a fifth of its hits are not listed in these tables; note: % is set by controls: 0 for no effect and ±100 for the full control effect; luciferase read-out
Cruzain noTriton: inhibitors of Trypanosoma cruzi cruzain without detergent; actives 2.3% (n = 200,000); purified cruzain, Z-FR-AMC fluorescence, no detergent; Potency, µM, for the others: max response, negative = inhibition, most hits filed as inhibitors; AID 1476; P25779;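 note: plate controls were enzyme without inhibitor for no effect and buffer without enzyme for full effect; nearly all actives have a fitted effect of over 40% in size; top concentration of the series not given in the record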
Target sequence (P25779 123-467 limits assumed): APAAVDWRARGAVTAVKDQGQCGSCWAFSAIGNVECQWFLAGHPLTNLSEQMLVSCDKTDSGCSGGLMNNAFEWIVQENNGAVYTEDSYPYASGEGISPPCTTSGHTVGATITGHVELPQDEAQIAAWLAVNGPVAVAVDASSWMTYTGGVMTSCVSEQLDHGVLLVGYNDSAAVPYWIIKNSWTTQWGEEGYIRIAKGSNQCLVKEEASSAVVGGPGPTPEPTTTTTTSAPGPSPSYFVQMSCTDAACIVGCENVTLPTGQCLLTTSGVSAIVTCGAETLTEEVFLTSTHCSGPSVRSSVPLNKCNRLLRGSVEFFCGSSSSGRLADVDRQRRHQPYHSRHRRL
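Detergent-free condition (0.00005% Triton X-100) in acetate buffer pH 5.5 with DTT. 1.5 nM enzyme and compound were pre-mixed 15 min, then 2 uM Z-FR-AMC substrate added; reaction progress from fluorescence change between first and third reads (60 s).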
Cruzain Triton: blocks cruzain activity in presence of Triton detergent. P25779. purified cruzain, Z-FR-AMC fluorescence, 0.01% Triton. Potency, µM, without a hit: max response, negative = inhibition, usual class: inhibitors. actives 0.43% (n = 200,000). AID 1478;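 note: plate controls were neutral wells for no effect and buffer without enzyme for full effect; nearly all actives have a fitted effect of over 40% in size; top concentration of the series not given in the record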
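Steps: dispense cruzain (1.5 nM final) in acetate buffer pH 5.5 with DTT and 0.01% Triton X-100; pin-transfer compounds; incubate 15 min RT; add Z-FR-AMC (2 uM final); read fluorescence every 30 s, using the 60 s intensity change.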
StopGo reporter: FMDV 2A StopGo reporter, luciferase signal | Potency, µM (top dose mostly 57.9 µM), for inactives: top-dose signal change, negative = less light | human cells with a luciferase reporter of 2A StopGo recoding; control for the full effect not named in the record | actives 1.2% (n = 410,000); active = well fitted falling curve with a large enough effect; inconclusive = small, poorly fitted or top-dose-only effect; inactive = no such curve, though single readings can be large or run the other way; tested in HEK293T cells; note: % is set by controls: 0 for no effect and ±100 for the full control effect; nearly all actives have a fitted effect of over 45% in size; luciferase light after 4 h
NS1 function inh: influenza NS1 inhibition; S. cerevisiae slowed by influenza A NS1, growth recovery by OD600; Potency, µM (titrated, usually from 46.1 µM), for the others: at the top dose activity, positive = more growth; actives 0.4% (n = 270,000); AID 2326; active means well fitted rising curve with a large enough effect; inconclusive means small, poorly fitted or top-dose-only effect; inactive means no such curve, though single readings can be large or run the other way; note: nearly all actives have a fitted effect of over 50% in size
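Recovery from NS1-induced slow growth read by OD600 in budding yeast switched to galactose assay medium (pH 6.0, -URA) at 1:100 dilution. Compound 23 nl per well; the matching strain lacking NS1 serves as control.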
Lassa entry inh: inhibitors of Lassa virus binding or cell entry | Lassa virus pseudotype entry inhibition, cell reporter; control for the full effect not named in the record | Potency, µM (highest dose often 37.9 µM), without a hit: at the highest dose activity change, negative = inhibition, usual class: inhibitors | actives 1.2% (n = 300,000); active means well fitted inhibition curve with a large enough effect; inconclusive means small, poorly fitted or top-dose-only effect, or effect the other way; inactive means flat fitted curve, though single readings scatter; tested in HEK293 cells; note: % is set by controls: 0 for no effect and ±100 for the full control effect; nearly all actives have a fitted effect of over 50% in size; luciferase read-out
RE007 growth inh: less growth of the S. pombe RE007 Vpr strain. Potency, µM (series often up to 92.2 µM), for the others: at the top dose activity change, negative = less growth. S. pombe RE007 Vpr strain, BacTiter-Glo ATP luminescence, 24 h; control for the full effect not named in the record. actives 0.21% (n = 360,000); active = well fitted falling curve with a large enough effect; inconclusive = small, poorly fitted or top-dose-only effect; inactive = no such curve, though single readings can be large or run the other way;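 note: % is set by controls: 0 for no effect and ±100 for the full control effect; nearly all actives have a fitted effect of over 50% in size; the assay follows cell death caused by Vpr and the record does not say whether a fall means rescue or toxicity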
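Fission yeast RE007 carrying one integrated HIV-1 vpr copy, seeded at OD 0.01 in PMG+AL medium with 23 nL pinned compound. Grown 24 h at 30 degrees; viability read by BacTiter-Glo luminescence after 5 min.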
SARS PLpro yeast: blocks SARS-CoV papain-like protease in a yeast assay. AID 485353. actives 0.19% (n = 330,000). S. cerevisiae expressing SARS-CoV PLpro, growth rescue; control for the full effect not named in the record. Potency, µM (top dose mostly 32.9 µM), inactives show at the top dose activity, positive = growth rescue; active means well fitted rising curve with a large enough effect; inconclusive means small, poorly fitted or top-dose-only effect; inactive means no such curve, though single readings can be large or run the other way; note: 0% is about no effect; nearly all actives have a fitted effect of over 55% in size; growth read by luminescence after 48 h
Active calls of the source: *; u = inconclusive; x = not tested or not shown; [ ] = dose if it differs, or a comment. Unless noted, calls come from the whole dose curve; as a rule, active = well fitted curve in the direction sought with a large enough effect; inconclusive = small, poorly fitted or top-dose-only effect, or another doubt; inactive = no such curve, though single readings can be large; an effect the other way counts as inactive or inconclusive. Potency is the fitted concentration of half-maximal effect. Hits appear at their usual frequency (roughly 4.7% active in at least one column).

SMILES	MARV entry inh	Cruzain noTriton	Cruzain Triton	StopGo reporter	NS1 function inh	Lassa entry inh	RE007 growth inh	SARS PLpro yeast
CC(=O)/C(=N\Nc1cccc(Cl)c1)Sc1cccc2cccnc12	12%	u	-0.3%	-2%	-10%	6%	5%	-7%
CCOc1ccc(OCC)c(NC(=O)CCS(=O)(=O)c2ccc(C)cc2)c1	x	x	x	-3%	-5%	x	-11%	-2%
Cc1ccc(Cn2c(CN3CCC(C(=O)NCc4ccccc4C)CC3)cc3ccccc32)cc1	x	12%	-8.8%	-8%	x	10%[46.1 µM]	x	x
Cc1sc2ncnc(N3CCC(C(=O)Nc4ccc(Cl)cc4Cl)CC3)c2c1C	-8%	x	x	-30%	x	4%	-12%	1%
C/C(=N\NC(=O)C(=O)Nc1ccc(C)c(Cl)c1)c1ccncc1	6%	-24%	3.7%	-16%	-2%	13%	-2%	16%
COc1ccc(NC(C)C(=O)Nc2cc(C(F)(F)F)ccc2N2CCOCC2)c(OC)c1 (stereo not given)	u	u	-5.6%	-22%	4%	-27%	-7%	-28%
CCc1cccc(C)c1NC(=O)CCCn1nc(C)c2sc3ccccc3c2c1=O	8%[46.1 µM]	2%	-1.8%	-9%	x	18%[46.1 µM]	x	x
COc1ccc(N(CC(=O)NC2CCCC2)C(=O)Cn2nnc(-c3ccc(OC)c(OC)c3)n2)c(OC)c1	-10%[46.1 µM]	x	x	21%	6%	-22%	-4%	-2%
COc1cccc(N2CC34C=CC(O3)C(C(=O)O)C4C2=O)c1 (stereo not given)	5%	4%	2.5%	39%[activator]	3%	7%	-5%	-1%
CSc1ccccc1C(=O)NC(C)c1ccc(-n2ccnc2)cc1 (stereo not given)	u	x	x	-23%	9%	-3%[46.1 µM]	-3%	4%
N#Cc1ccc(Oc2nc(C(N)=O)cc(-c3ccccc3)n2)cc1	4%	-2%	-5.2%	0%	-2%	-1%	-18%	2%
Cc1nnc(SCC(=O)N2CCCC(N3CCN(c4ccc(F)cc4)CC3)C2)o1 (stereo not given)	29%	x	x	-12%	-3%	5%	6%	-9%
Cc1ccc(-c2ccc(C(=O)O)o2)cc1Cl	8%[46.1 µM]	x	x	24%	-53%	u	31%	-1%
CCOc1ccc(OCCC(=O)OCC(=O)c2c(N)n(C)c(=O)n(C)c2=O)cc1	u	x	x	16%	x	3%[46.1 µM]	13%	-1%
Cc1cccc(N2CCN(C(=O)Cn3ncc4c5ccccc5n(C)c4c3=O)CC2)c1C	20%[46.1 µM]	-6%	-2.6%	5%	x	-2%[46.1 µM]	x	x
CCN(CCS(=O)(=O)c1ccc(Cl)cc1)C(=O)Nc1ccc(Cl)cc1	x	x	x	-2%	-7%	x	-13%	-2%
CC(=O)Nc1sc(C)c(C)c1C(=O)OCC(=O)N(C)C1CCS(=O)(=O)C1 (stereo not given)	u	21%	-5.2%	-3%	3%	26%	4%	10%
Clc1ccc(-n2nnnc2-c2cnc3ccccc3c2-c2ccccc2)cc1	-34%	x	x	-23%	-1%	-5%	0%	-1%
Cc1ncc([N+](=O)[O-])n1CCOC(=O)NC(Nc1ccc(F)cc1)C(Cl)(Cl)Cl (stereo not given)	x	x	x	-20%	-1%	x	4%	-1%
NC(N)=N/N=C/c1ccc(Cl)cc1Cl	3.2µM*	x	x	0%	-2%	u	-6%	1%
CCc1nc2ccccc2nc1N1CCN(S(=O)(=O)c2ccc(Cl)cc2)CC1	11µM*	x	x	u	4%	u	-3%	0%
Cc1ccc(Nc2nc(-c3ccccc3)cs2)nc1	x	x	x	-47%	15%	x	-14%	0%
c1ccc(Oc2cc(-n3cncn3)ncn2)cc1	3%	5%	-2.8%	67%[activator]	1%	-2%	-29%	-22%
O=C(N1CCOCC1)N(Cc1ccco1)CC1CCCO1 (stereo not given)	u	6%	0.6%	-20%	1%	15%	17%	0%
Cn1c(SCC(=O)NCc2ccc3c(c2)OCO3)ncc(C(=O)Nc2ccc(F)cc2)c1=O	24%	x	x	u	x	9%	-6%	1%
O=C(Nc1cc(S(=O)(=O)N2CCOCC2)ccc1N1CCCCC1)c1cc(-c2ccccn2)nc2ccccc12	-16%[46.1 µM]	x	x	u	x	-7%	-5%	-1%
COc1ccc(-c2nc3sc(CCNC(=O)c4cccc(C(F)(F)F)c4)c(C)n3n2)cc1	x	u	-8.3%	34%[activator]	x	-11%[46.1 µM]	x	x
COc1ccc(NC(=O)Cc2nnc(SCC(=O)c3ccccc3)n2C)cc1	18%[46.1 µM]	x	x	4%	4%	x	38%	2%
O=C(COC(=O)c1ccccc1Cl)Nc1ccc2[nH]c(=O)[nH]c2c1	6%[46.1 µM]	x	x	-23%	x	-1%	-13%	-1%
COc1ccc(CN(C(=O)c2snc(C(N)=O)c2N)C(C)C(=O)NCc2ccc(F)cc2)cc1 (stereo not given)	2%[46.1 µM]	x	x	9%	9%	x	-10%	-3%
CC(=O)c1cc2c(cc1NC(=O)CN1Cc3ccccc3C1=O)OCO2	x	x	x	-8%	-5%	x	11%	3%
O=C(NC(=S)Nc1cccc(S(=O)(=O)NC2=NCCC2)c1)c1cc(-c2ccco2)nc2ccccc12	u	x	x	-10%	20%	-12%	14%	1%
O=C(Nc1ccc(Br)cc1C(=O)c1ccccc1Cl)c1ccc(Br)cc1	x	11%	4.2%	-5%	x	2%[46.1 µM]	x	x
O=C(O)c1c[nH]c(=S)n1-c1ccc(F)cc1	8%	3%	-3.2%	16%	5%	14%	9%	3%
NC(=O)C1=C[C@H](c2ccc(Br)cc2)C[C@H](OCc2ccc(CO)cc2)O1	x	x	x	35%[activator]	1%	x	4%	-1%
COC(=O)CCS(=O)(=O)c1ccc(Cl)c(Cl)c1	0%	-15%	-1.9%	-17%	8%	23%	-5%	0%
CCC(NC(=O)CCc1nnc(-c2cc(C)on2)o1)C12CC3CC(CC(C3)C1)C2 (stereo not given)	3%	x	x	23%	-16%	0%	-7%	2%
CCc1ccc(NC(=O)C2CCN(c3nc(-c4ccc(OC)cc4)no3)CC2)cc1	x	-8%	2.1%	0%	x	5%[46.1 µM]	x	x
CC(C)CCOCC1CC2(CC(C)(c3csc(N)n3)OC2=O)C(=O)O1 (stereo not given)	1%	1%	4.9%	-15%	u	12%	11%	-6%
Cc1ccc(C(=O)NC2CCCCCCC2)cc1S(=O)(=O)N1CCOCC1	u	x	x	64%[activator]	x	25%	-4%	-2%
O=C(CSc1nc(=O)n(CCCN2CCOCC2)c2c1CCCC2)Nc1ccc(F)c(F)c1	-4%	x	x	0%	x	-24%	-18%	-13%
COc1cccc(-c2nn(-c3ccc(C)cc3)cc2C(=O)NCC2CCCO2)c1 (stereo not given)	0%	x	x	34%[activator]	x	12%	-8%	1%
Cc1cc2c(cc1S(=O)(=O)Nc1ccc(C(C)C)cc1)OCCN2C	x	13%	-0.8%	31%[activator]	x	6%[46.1 µM]	x	5%
CCCCCCCCC#Cc1nc(C)ccc1OC	x	5%	-0.5%	-23%	x	x	-25%	-20%
C=CCNc1nc2ccccc2nc1NS(=O)(=O)c1ccc(Cl)cc1	x	x	x	13%	-115%	x	-14%	-17%
CCOC(=O)CNC(=O)c1sc(NC(=O)c2ccccc2)nc1C	-25%	5%	-3.0%	9%	-5%	24%	-2%	-15%
COC(C#CCCN(C)C)(c1ccccc1)c1ccccc1	-29%	1%	-1.3%	u	-6%	u	u	-34%
CC(C)c1nc(SCC(=O)c2ccc(F)cc2)c2ccccc2n1	x	x	x	u	-2%	x	-9%	-5%
Cc1c(-c2ccccc2)nc(N)c(C#N)c1-c1cccs1	-27%	1%	3.1%	-10%	-5%	-12%	20%	3%
CC(=O)N(/N=C1\Sc2ccccc2C1=O)c1ccccc1	u	-12%	11%	22%	-3%	u	5%	-4%
Cc1ccc(NC(=O)c2cc(C(=O)c3cc(Cl)ccc3O)cn(-c3ccc(C)cc3)c2=O)cc1	u	5µM*	-2.2%	0%	23%	u	x	u
Cc1cccc(-c2nnn(CC/C(N)=N/O)n2)c1	u	-12%	1.6%	56%[activator]	-11%	6%	1%	2%
Cc1cccc(NC(=O)Cn2cnc3ccc(S(=O)(=O)N4CCC(C)CC4)cc3c2=O)n1	-19%	7%	-3.6%	-19%	u	3%	-2%	-18%
CNC(=O)CN1C(=O)NC(Cc2c[nH]c3ccccc23)C1=O (stereo not given)	u	x	x	-14%	0%	-8%[46.1 µM]	10%	0%
CC(C)n1c(O)c(C=NCc2ccccc2)c(=O)[nH]c1=S	x	x	x	-2%	1%	x	-12%	-2%
COc1ccc(N2CC(C(=O)N/N=C/c3ccc(C)cc3)CC2=O)cc1 (stereo not given)	u	x	x	-24%	-7%	u	9%	20%
CCn1c(=NC(=O)COc2ccccc2)sc2cccc(F)c21	x	x	x	-1%	-9%	x	-5%	-1%
CCN1C(=O)c2ccc(C(=O)O)cc2C1=O	14%	-13%	0.2%	11%	2%	u	0%	-3%
COc1ccc(C(C)=O)cc1COC(=O)CCNS(=O)(=O)c1ccc(C)cc1	-12%[46.1 µM]	x	x	-1%	x	15%	0%	-6%
CN(C(=O)c1cc([N+](=O)[O-])ccc1NCc1cccnc1)c1ccccc1	x	x	x	-14%	4%	x	2%	-2%

Next part.
SMILES	MARV entry inh	Cruzain noTriton	Cruzain Triton	StopGo reporter	NS1 function inh	Lassa entry inh	RE007 growth inh	SARS PLpro yeast
CCC(Sc1nc(C)cc(C)n1)C(=O)NC1=NN=C(c2ccc(C)cc2)CS1 (stereo not given)	u	9%	-0.4%	-14%	11%	u	19%	-10%
Cc1c(-c2ccccc2)oc2c(C(=O)OCC(=O)Nc3ccc(C(N)=O)cc3)cccc2c1=O	16%	9%	-3.5%	-20%	1%	0%	-18%	-9%
O=C(COC(=O)c1ccc(Cl)nc1)NCc1ccc2c(c1)OCO2	-5%	-4%	-1.4%	-3%	0%	-15%	-13%	-7%
COc1ccc(/C=C/C(=O)NCCCN2CCOCC2)cc1	14%[46.1 µM]	x	x	-7%	6%	5%[46.1 µM]	7%	1%
COc1cc(/C=N/NC(N)=O)ccc1OCC(=O)Nc1ccc(C)c(C)c1	6%	-22%	-5.0%	2%	27%	-4%	5%	7%
